AID504770: growth inhibition of E. coli YBA685, primary screen, V. cholerae RctB inhibitors | z-score (test concentration not listed) | hit rate 0.27% among 130,000 | E. coli YBA685 rctB-dependent plasmid, OD600 growth, 3 h; stronger effect = lower value | AID 504770, 2011;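 active = z-score under -2 on both plates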;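 note: wells of about 30 µL received 100 nL stock; score is relative to mean and SD of the test wells; the first replicate is given; strong numbers were not always called active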
Ba CapD inh: Bacillus anthracis CapD inhibitors, primary screen, biochemical, fluorescence intensity; hit rate 0.23% among 140,000; z-score (no concentration beside the values); purified CapD enzyme, fluorescence intensity read-out; stronger effect = lower value; some hits fall short of the stated cut; CapD gamma-glutamyltranspeptidase (Bacillus anthracis Ames Ancestor);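 active = z-score under -4 in either of two replicates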;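 note: stock transfer was 100 nL into about 40 µL; score is relative to mean and spread of the plate; one replicate is shown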
Starred values were filed as active, the others as inactive; & = joins results of further samples.

What do the screens show for `COc1ccc(NCC(=O)N/N=C/C2CCCCC2)cc1`?
AID504770: 0.15

What do the screens show for `O=C(CSc1nnc(-c2ccncc2)n1Cc1ccccc1)c1cccc([N+](=O)[O-])c1`?
Ba CapD inh: 0.14

How did COC(=O)c1ccccc1NC(=S)N(C)N do in these assays?
Ba CapD inh: -0.75

Results for O=C1NC(=Nc2ccc(Cl)cc2)SC1Cc1ccccc1[N+](=O)[O-] (stereo not given) ?
Ba CapD inh: -0.79

What do the screens show for `CCn1c(CCl)nc2cc(C(=O)O)ccc21`?
AID504770: -0.2; Ba CapD inh: 6.1

What do the screens show for `Cc1ccccc1NC1=NCCS1`?
AID504770: -0.35; Ba CapD inh: -0.73

Results for CCOc1ccc(-c2csc(NC(=O)Cc3ccccc3)n2)cc1 ?
AID504770: 0.6; Ba CapD inh: -0.26

What do the screens show for `COc1ccc(C2CC(c3ccccc3)=NN2C(=O)COc2ccc(-n3cnnn3)cc2)cc1` (stereo not given)?
AID504770: -0.25

Results for Cn1c(=O)cc(OCC(=O)NC2CCCCC2)c2ccccc21 ?
AID504770: 0.95; Ba CapD inh: 1.1

What do the screens show for `NNC(=S)/N=C/c1ccco1`?
AID504770: 1.1

How did O=C(Cc1coc2ccc3ccccc3c12)N1CCN(c2ccccc2)CC1 do in these assays?
AID504770: -0.45; Ba CapD inh: 0.96

What do the screens show for `FC(F)(F)Oc1ccc(N=Cc2ccsc2)cc1`?
AID504770: -0.65; Ba CapD inh: -0.43

What do the screens show for `COc1ccc(N=Cc2c(O)n(C3CCCCC3)c(=O)n(C3CCCCC3)c2=O)cc1`?
AID504770: 0.7; Ba CapD inh: 0.4

What do the screens show for `COC(=O)c1oc2nc(C)cc(C)c2c1N`?
AID504770: -0.65

Results for CC(=O)Nc1ccc(N(C)C(C)=O)cc1 ?
AID504770: -0.9

Results for CC1=C(C(=O)Nc2ccccc2)C(c2ccccc2)n2ncc(C(=O)Nc3ccccc3)c2N1 (stereo not given) ?
AID504770: 0.6; Ba CapD inh: 4

What do the screens show for `O=C(Nc1ccccc1C(F)(F)F)N(Cc1ccc(Cl)cc1)Cc1ccc2cc[nH]c2c1`?
Ba CapD inh: -0.17

How did Cc1nnc(N(Cc2ccco2)C(=O)c2cccc(C#N)c2)s1 do in these assays?
AID504770: -0.65

How did CC(=O)Nc1ccc(N=c2ssc3c2-c2cc(C)c(C)cc2NC3(C)C)cc1 do in these assays?
Ba CapD inh: -0.39

Results for COC(=O)C1=C(C)NC2=C(C(=O)CC(c3cccs3)C2)C1c1cc(OC)c(Br)cc1OC (stereo not given) ?
Ba CapD inh: 18

Results for Cc1cc(/C=C2\C(=O)NC(=S)N(C)C2=O)c(C)n1-c1ccc(C(=O)O)cc1 ?
AID504770: 0.1; Ba CapD inh: 0.42

Results for CCc1ccccc1NC(=O)CC1CS(=O)(=O)CC1CC(=O)Nc1ccccc1CC (stereo not given) ?
AID504770: -0.15; Ba CapD inh: -0.98

Results for Nc1nonc1-n1nnc(C(=O)N/N=C/c2sc3ccccc3c2Br)c1-c1ccccc1 ?
Ba CapD inh: 0.35

How did CCOC(=O)c1c(NC(=O)CN2CCCCC2)sc2c1CCCC2 do in these assays?
AID504770: -0.65

What do the screens show for `CC(C)OC(=O)c1cc2c(ccn2C)n1Cc1ccc(Cl)cc1Cl`?
AID504770: 1.9

How did COC(=O)c1cn(CCC#N)nc1-c1cccs1 do in these assays?
AID504770: -0.4

Results for COC(=O)c1ccc(OCc2nc(N)nc(N3CCOCC3)n2)cc1 ?
Ba CapD inh: 0.17

Results for CCC(NS(=O)(=O)c1cc(C)ccc1OC)C12CC3CC(CC(C3)C1)C2 (stereo not given) ?
AID504770: 0.3; Ba CapD inh: 0.12

What do the screens show for `Cc1cccnc1N1C(=O)C2C3C=CC(C3)C2C1=O` (stereo not given)?
Ba CapD inh: -0.21

How did CSc1sc(C)cc1/C=N/O do in these assays?
AID504770: -0.85; Ba CapD inh: 0.39

What do the screens show for `CC(=O)Oc1ccc(C(C#N)c2ncc(C(F)(F)F)cc2Cl)cc1` (stereo not given)?
Ba CapD inh: -0.35

Results for Cc1cc(=O)[nH]c(NCCO)n1 ?
AID504770: -1.2&0.55; Ba CapD inh: -0.56

Results for COc1ccc(CC(=O)n2nc(C)cc2C)cc1 ?
AID504770: -1.4; Ba CapD inh: -0.03

What do the screens show for `CCOC(=O)c1ccc(N=Cc2cc(Cl)cc(Cl)c2O)cc1`?
Ba CapD inh: 0.43

What do the screens show for `Cc1cc(C)cc(NC(=O)Nc2ccccc2)c1`?
AID504770: 0.75; Ba CapD inh: 0.19

What do the screens show for `CC1=NC2N(C(=S)NC(=O)c3ccco3)N=C(NC(=O)c3ccco3)N2C(OC(=O)c2ccco2)=C1` (stereo not given)?
AID504770: -0.25

What do the screens show for `O=S(=O)(NCCc1nc(-c2ccc(Cl)cc2)no1)c1ccc(F)cc1`?
AID504770: 0.6; Ba CapD inh: -0.13

How did CCN1CCCC1CNC(=O)c1ccc2c(c1)N(Cc1cccc(Cl)c1)C(=O)c1ccccc1S2=O (stereo not given) do in these assays?
AID504770: -0.15; Ba CapD inh: -0.99

How did O=C1CSC(=S)N1c1ccc(Oc2ccc(Cl)cc2)cc1 do in these assays?
AID504770: -0.1; Ba CapD inh: 0.91

What do the screens show for `c1ccc2c(N3CCCCC3)nc(N3CCCC3)nc2c1`?
AID504770: -0.4; Ba CapD inh: 8

Results for c1ccc(-c2csc3nc4ccccc4n23)cc1 ?
AID504770: -0.45; Ba CapD inh: -0.65

How did CC1C(c2ccc(Cl)cc2)=[N+]([O-])C(C)(C)N1O (stereo not given) do in these assays?
AID504770: -0.25; Ba CapD inh: 0.24

How did COc1nccc(N)n1 do in these assays?
AID504770: -0.3; Ba CapD inh: 0.095

How did COC(=O)c1ccccc1Sc1nccc(-c2ccc(F)cc2)c1C#N do in these assays?
Ba CapD inh: -0.18

What do the screens show for `COc1ccc(-c2nnc(SCC(=O)N3CC(C)OC(C)C3)n2C2CCCCC2)cc1OC` (stereo not given)?
AID504770: -0.15

Results for Cc1cc(C)c(C(=O)NCc2ccco2)c(C)c1C(=O)NCc1ccco1 ?
AID504770: -1.1; Ba CapD inh: -0.005

Results for COC(=O)C1=C(N)Oc2ccccc2C1C(C#N)C(=O)OC (stereo not given) ?
Ba CapD inh: 16

How did COc1ccc(OCC(=O)N2CCC(Cc3ccccc3)CC2)cc1 do in these assays?
AID504770: -0.65; Ba CapD inh: 0.15

What do the screens show for `COc1ccc(Cl)cc1-c1nnc(SCC(=O)NC2CC3CCC2C3)o1` (stereo not given)?
AID504770: 0.15

How did CC1(C)COC2(OC1)C(=O)Nc1ccccc12 do in these assays?
Ba CapD inh: -0.07

What do the screens show for `CN(C)S(=O)(=O)c1cccc(C(=O)NC2=NCCS2)c1`?
AID504770: 0.1

How did CC(=O)N1c2ccc(Br)cc2C2(c3ccccc3)N(C(C)=O)c3ccc(Br)cc3C12c1ccccc1 (stereo not given) do in these assays?
Ba CapD inh: -0.5

How did C=CCNC(=S)N1CCN(CCN=Cc2c(C)[nH]n(-c3ccc([N+](=O)[O-])cc3)c2=O)CC1 do in these assays?
Ba CapD inh: 0.3

Results for Nc1ccc2nc(CCCO)[nH]c2c1 ?
AID504770: 0.75

What do the screens show for `O=C(OCCCN1C(=O)c2cccc3c(N4CCOCC4)ccc(c23)C1=O)c1ccc([N+](=O)[O-])cc1[N+](=O)[O-]`?
Ba CapD inh: -0.55

What do the screens show for `CCn1nc(N)c2c(O)[nH]c(=O)cc21`?
AID504770: 0.6; Ba CapD inh: -0.085

Results for CN(C)c1nc(N)nc2ncn(C)c12 ?
Ba CapD inh: -0.24

How did CN(c1c[nH]c(=O)[nH]c1=O)C1CCCCC1 do in these assays?
AID504770: -0.65; Ba CapD inh: 0.39

How did COc1ccc2cc(-c3ccon3)ccc2c1 do in these assays?
AID504770: -0.45; Ba CapD inh: 5.1

What do the screens show for `CC1=Nn2c(nnc2-c2ccccc2)SC1`?
AID504770: -0.7; Ba CapD inh: -0.89

Results for COc1ccccc1C(=O)OCCCN(C1=NS(=O)(=O)c2ccccc21)c1ccccc1 ?
Ba CapD inh: -1.1

What do the screens show for `CCCCCCc1ccc(C(=O)NNC(=O)c2ccccc2OC(F)(F)F)cc1`?
Ba CapD inh: -0.23

What do the screens show for `CCOC(=O)N/N=C/c1ccc(OC)cc1`?
Ba CapD inh: -0.33

What do the screens show for `COc1ccc(C2CC(c3ccc(Br)cc3)=Nc3ccccc3S2)cc1` (stereo not given)?
Ba CapD inh: -0.31

Results for CCCN(CCC)S(=O)(=O)c1ccc(C(=O)NNC(=O)OCCc2ccccc2OC)cc1 ?
Ba CapD inh: 1.7

How did FC(F)(F)c1ccc(-c2nnc(-c3ccc(Cl)cc3)o2)nc1 do in these assays?
AID504770: -0.7; Ba CapD inh: 2.3

What do the screens show for `Cc1ccc(-c2nnc(C)c(Sc3cccc(C(F)(F)F)c3)n2)cc1`?
Ba CapD inh: -0.01

How did CN(C)CCNC(=O)Nc1ccc(F)cc1F do in these assays?
AID504770: 0.5; Ba CapD inh: 0.52

Results for CCOC(=O)c1cc(C#N)c(N2CCN(C(=O)c3ccc(CSc4ccccn4)o3)CC2)nc1C(F)(F)F ?
Ba CapD inh: 0.23

Results for O=C(c1cccc(-c2nnc(-c3ccccc3)o2)c1)N1CCCCC1 ?
AID504770: -0.95; Ba CapD inh: 0.18

Results for CC1C(=O)ON(c2ccccc2)C(=O)N1C (stereo not given) ?
AID504770: -1; Ba CapD inh: 4.3

How did CSc1ccc(C=C(C#N)C#N)s1 do in these assays?
AID504770: 0.25; Ba CapD inh: -3.7

How did Cc1ccc([N+](=O)[O-])c(COC(=O)NC(Cc2c[nH]c3ccccc23)C(=O)OC(C)(C)C)c1 (stereo not given) do in these assays?
Ba CapD inh: -0.86

How did COc1nc(C)nc(NC(=O)NC(=O)c2c(Cl)nc(C)c([N+](=O)[O-])c2C)n1 do in these assays?
Ba CapD inh: -0.11

Results for O=C(NC(CC(=O)N1CCN(C(=O)c2ccco2)CC1)c1ccccc1)c1ccccc1Cl (stereo not given) ?
AID504770: 2.2

How did CC(Oc1ccccc1)C(=O)NC1C(=O)N2C(C(=O)O)C(C)(C)S[C@H]12 (stereo not given in full) do in these assays?
Ba CapD inh: -0.24

How did CC(=O)SC1CC(=O)N(c2ccc(F)c(F)c2F)C1=O (stereo not given) do in these assays?
AID504770: -1; Ba CapD inh: -0.93

How did CN(C(=O)CSc1nc(-c2ccco2)cc(C(F)(F)F)n1)c1ccccc1 do in these assays?
AID504770: -0.05

Results for COc1ccc(C2C(C#N)=C(N)Oc3c2ccc(=O)c2c(C)oc(C)c32)cc1 (stereo not given) ?
AID504770: -0.4; Ba CapD inh: -0.03

What do the screens show for `COc1ccc(OC)c(-c2noc(NCCc3ccc(Cl)cc3)n2)c1`?
AID504770: 2.2; Ba CapD inh: 2.3

Results for COc1ccc(NC(=O)C2C3C=CC4(O3)C2C(=O)N(Cc2cccnc2)C4C(=O)NC2CCCCC2)cc1 (stereo not given) ?
AID504770: 2; Ba CapD inh: -0.33

Results for C=CCn1c(COc2ccc(F)cc2)nnc1SCC(=O)c1ccc[nH]1 ?
AID504770: -1.7

Results for O=C1Nc2cc(C(=O)NC3CC3)ccc2S/C1=C\c1ccccc1 ?
AID504770: -0.05; Ba CapD inh: -0.39

What do the screens show for `CC(=O)OC(C(=O)c1ccccc1)c1ccccc1` (stereo not given)?
AID504770: -0.15; Ba CapD inh: 0.085

Results for CSc1nsc(SCC(=O)c2ccccc2)n1 ?
AID504770: 2.1; Ba CapD inh: -0.27

What do the screens show for `CC(=O)Oc1cccc(C(=O)N(C(C)C)C(C)C)c1`?
AID504770: 2; Ba CapD inh: -1.3

Results for COc1ccccc1NS(=O)(=O)c1ccc2oc(SCC(=O)c3ccc4c(c3)NC(=O)CO4)nc2c1 ?
AID504770: -1.4

Results for CCOC(=O)CC1=C(C(=O)OCC)C(c2ccc(C)cc2)C(C#N)=C(N)O1 (stereo not given) ?
Ba CapD inh: 0.68

What do the screens show for `Cc1ccc(N2C(=O)CC(Sc3ncn[nH]3)C2=O)c(Cl)c1` (stereo not given)?
Ba CapD inh: 1.3

How did COC(=O)C1=CN(Cc2ccc(OC)cc2)C=C(C(=O)OC)C1c1cc(OC)c(O)c([N+](=O)[O-])c1 do in these assays?
Ba CapD inh: -1.1

Among those listed so far, 9 have an NH in an aromatic ring:
What do the screens show for `O=C(Nc1ccccc1C(F)(F)F)N(Cc1ccc(Cl)cc1)Cc1ccc2cc[nH]c2c1`?
Ba CapD inh: -0.17

Results for Cc1cc(=O)[nH]c(NCCO)n1 ?
AID504770: -1.2&0.55; Ba CapD inh: -0.56

How did C=CCNC(=S)N1CCN(CCN=Cc2c(C)[nH]n(-c3ccc([N+](=O)[O-])cc3)c2=O)CC1 do in these assays?
Ba CapD inh: 0.3

Results for Nc1ccc2nc(CCCO)[nH]c2c1 ?
AID504770: 0.75

What do the screens show for `CCn1nc(N)c2c(O)[nH]c(=O)cc21`?
AID504770: 0.6; Ba CapD inh: -0.085

How did CN(c1c[nH]c(=O)[nH]c1=O)C1CCCCC1 do in these assays?
AID504770: -0.65; Ba CapD inh: 0.39

How did Cc1ccc([N+](=O)[O-])c(COC(=O)NC(Cc2c[nH]c3ccccc23)C(=O)OC(C)(C)C)c1 (stereo not given) do in these assays?
Ba CapD inh: -0.86

Results for C=CCn1c(COc2ccc(F)cc2)nnc1SCC(=O)c1ccc[nH]1 ?
AID504770: -1.7

What do the screens show for `Cc1ccc(N2C(=O)CC(Sc3ncn[nH]3)C2=O)c(Cl)c1` (stereo not given)?
Ba CapD inh: 1.3
